Compound activity as filed in PubChem BioAssay.
Sa RN4220 lethal = growth inhibition of S. aureus RN4220, primary screen, OD600. AID 1259311, 2017. 0.33% of 330,000 active. inhibition, % (no concentration beside the values). 16 h;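 active = z-score of -3 or lower and OD600 up to 0.18 on both plates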;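 also: plate controls were untreated cells for no effect and reference antibiotic for full effect; stock transfer was 100 nL into about 80 µL; one replicate is shown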
Bead autofluor = compound fluorescence in toxin protease inhibitor counterscreen | compound autofluorescence counterscreen, microsphere flow cytometry; active compounds read high | fluorescence intensity (concentration not given with the values) | 3.1% of 360,000 active | AID 624483;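 active = at least 3 SD above the mean of all compounds, about 16000 in these data; inconclusive = too few beads counted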;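 also: 100 nL of 1 mM stock went into each well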
ugtP null kill = growth inhibition of ugtP-null S. aureus, primary screen, RN4220 ugtP deletion, OD600. AID 1259309, 2017. 16 h; some inactives read as strong as hits. 0.54% of 330,000 active. growth inhibition, % (no concentration beside the values);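 active = z-score under -3 and OD600 up to 0.15 on both plates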;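 also: plate controls were untreated wells for no effect and antibiotic for full effect; wells of about 80 µL received 100 nL stock; the first replicate is given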
PrP UTR inh = inhibition of PrP 5' UTR reporter expression; cell-based PrP 5' UTR mRNA reporter, plate reader; inhibition, % (test concentration not listed); 0.35% of 340,000 active; AID 488862, 2010;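 active = every replicate at 50% or more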;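 also: 0 = median of the neutral control wells; tested in H4 reporter cells; numbers are from one replicate; inactives centre near -14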
Mtb hypoxia rep = PubChem AID 1159583 | M. tuberculosis hypoxia-regulated fluorescent reporter, fluorescence | fluorescence inhibition, % (concentration not given with the values) | 0.1% of 300,000 active;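 active = 35 to 45% if threefold the growth effect, above 45% if 1.5-fold the growth effect; inactive = the rest, general growth blockers included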;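 also: wells of about 50 µL received 100 nL stock; 0% = vehicle wells and 100% = reference inhibitor wells; whole bacteria with a GFP reporter of the hypoxia response; strong numbers were not always called active; many hits fall short of the cut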
BJeLR viability = MLPCN primary cell-based screen for lethality selective to Ras in HRASV12 cells. BJeLR (HRASV12) viability, CellTiter-Glo ATP luminescence, 48 h; reference of the scale not given here. inhibition, % (concentration not given with the values). 0.17% of 300,000 active;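 active = replicate mean above 50%; inconclusive = above 50% but judged a plate artefact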;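 also: 50 nL library stock added to about 25 µL; numbers are from one replicate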
Mtb hypoxia rep growth = recorded beside Mtb hypoxia rep, whose call it bears; growth inhibition, %; measured here: M. tuberculosis growth (absorbance);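 0% = vehicle and 100% = reference antibiotic; read after six days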
* marks the source's active call; other numbers are inactive results; ? = inconclusive; / = not tested or not shown.

SMILES | Sa RN4220 lethal | Bead autofluor | ugtP null kill | PrP UTR inh | Mtb hypoxia rep | Mtb hypoxia rep growth | BJeLR viability
Cc1nn(CCCC(=O)N2CCc3ccccc3C2)c(=O)c2cc3sccc3n12 | 4.1 | 4427 | 1 | -12 | -7 | -7 | -13
Cc1ccc(S(=O)(=O)N2[C@@H](c3ccc(C(C)(C)C)cc3)C(C(=O)O)=CC[C@H]2c2ccc(Cl)cc2)cc1 | 99* | 3767 | 80 | -5 | -4 | 3 | /
CCOc1ccc(Nc2nc(N)nc(CSC(=S)N3CCN(c4ccccc4)CC3)n2)cc1 | -2.4 | 5974 | 25 | -23 | 6 | 19 | -8
S=C(NCc1ccncc1)Nc1cc(Cl)cc(Cl)c1 | 0.4 | 4449 | -9 | 6 | 5 | 6 | 3
Cc1ccc(C(=O)COC(=O)CN2C(=O)C3C4CCC(C4)C3C2=O)cc1[N+](=O)[O-] (stereo not drawn) | 4.1 | 2598 | 6 | -31 | 12 | 0 | 2
COc1ccc(Cl)cc1Nc1cc(C)nc2ccccc12 | 0.4 | 3472 | 5 | / | 5 | -1 | 11
O=C(O)CC/C(=N\NC(=O)CNC(=O)c1ccc(F)cc1)c1ccccc1 | / | 5155 | / | -16 | / | / | -6
CCOC(=O)CCCCC(=O)c1[nH]c(=O)[nH]c1Cn1cnc2ccccc21 | 3.2 | 5662 | 8 | -19 | 7 | -2 | -4
CN1CCC(=O)N(C(CO)Cc2ccccc2)CC1 (stereo not drawn) | 1.9 | / | -12 | / | 1 | 14 | /
O=C(Cc1ccccc1)Nc1nc(-c2cccc([N+](=O)[O-])c2)cs1 | 3.8 | 2166 | 4 | -8 | 3 | -1 | -5
CC(=O)Nc1ccc(C2=NNC(=NCC3CCCO3)SC2)cc1 (stereo not drawn) | 6.8 | 2253 | 1 | -9 | 1 | 6 | /
Cc1cnc(C(=O)NCc2ccc(Cl)cc2Cl)cn1 | -1.0 | 4410 | -3 | -1 | 11 | 16 | 3
Cc1ccc(S(=O)(=O)N(CC(=O)NCc2ccco2)c2ccccc2C)cc1 | -0.2 | 3711 | 0 | -17 | 7 | 2 | 4
O=C(NCc1ccco1)c1sc2cc(F)ccc2c1Cl | 12 | 4189 | 14 | -22 | 18 | 6 | 3
CCOc1ccc(CC(C(N)=O)C(N)=O)cc1 | 12 | 4009 | 7 | -18 | 3 | 9 | -3

Molecules above that contain nitrogen in an aromatic ring:
SMILES | Sa RN4220 lethal | Bead autofluor | ugtP null kill | PrP UTR inh | Mtb hypoxia rep | Mtb hypoxia rep growth | BJeLR viability
Cc1nn(CCCC(=O)N2CCc3ccccc3C2)c(=O)c2cc3sccc3n12 | 4.1 | 4427 | 1 | -12 | -7 | -7 | -13
CCOc1ccc(Nc2nc(N)nc(CSC(=S)N3CCN(c4ccccc4)CC3)n2)cc1 | -2.4 | 5974 | 25 | -23 | 6 | 19 | -8
S=C(NCc1ccncc1)Nc1cc(Cl)cc(Cl)c1 | 0.4 | 4449 | -9 | 6 | 5 | 6 | 3
COc1ccc(Cl)cc1Nc1cc(C)nc2ccccc12 | 0.4 | 3472 | 5 | / | 5 | -1 | 11
CCOC(=O)CCCCC(=O)c1[nH]c(=O)[nH]c1Cn1cnc2ccccc21 | 3.2 | 5662 | 8 | -19 | 7 | -2 | -4
O=C(Cc1ccccc1)Nc1nc(-c2cccc([N+](=O)[O-])c2)cs1 | 3.8 | 2166 | 4 | -8 | 3 | -1 | -5
Cc1cnc(C(=O)NCc2ccc(Cl)cc2Cl)cn1 | -1.0 | 4410 | -3 | -1 | 11 | 16 | 3

New compounds follow:
SMILES | Sa RN4220 lethal | Bead autofluor | ugtP null kill | PrP UTR inh | Mtb hypoxia rep | Mtb hypoxia rep growth | BJeLR viability
Clc1ccc2c(N3CCOCC3)ccnc2c1 | 3.0 | 3315 | 11 | -19 | 14 | 10 | -1
CC(C)Cn1cc(C(=O)NCC2CCCO2)c2c3ccccc3n(C)c2c1=O (stereo not drawn) | 1.7 | 8343 | 4 | 15 | 5 | -2 | 4
CCC1(CC)NC(=O)N(CC(=O)OCC(=O)Nc2sccc2C#N)C1=O | 0.6 | 2417 | -2 | -17 | -5 | 4 | 5
CN(CCC#N)C(=O)COC(=O)c1ccc2[nH]c3c(c2c1)CCCC3 | 0.0 | 4527 | -1 | -37 | 2 | 4 | 6
Cn1c(N)c(C(=O)COC(=O)CCC(=O)c2cccs2)c(=O)n(C)c1=O | 2.9 | 9696 | 3 | -27 | 8 | 8 | 3
CN(c1ccccc1)S(=O)(=O)c1nnc(NC(=O)COc2ccccc2F)s1 | 17 | 5563 | 8 | -13 | 2 | -3 | -8
O=C(CN1CCC(c2nc3ccccc3[nH]2)CC1)NCc1ccc2c(c1)OCO2 | 1.7 | 8233 | 9 | -29 | 7 | -25 | 16
Cc1ccc(NC(=O)[C@H](Cc2c[nH]c3ccccc23)NC(=O)[C@@H]2Cc3ccccc3CN2)c(C)c1 | 1.4 | 4945 | -4 | -38 | / | / | 65*
O=S1(=O)CCC(=NNc2ccc(C(F)(F)F)cn2)c2cc(F)ccc21 | 6.8 | / | 20 | / | 5 | 4 | /
O=C(c1cc(-c2cccc(Cl)c2)nc2ccccc12)N1CCCC1 | -0.8 | 5510 | 4 | -11 | 3 | 3 | -6
Cc1cc(C)n(-c2ccc(Cl)c(Cl)c2)n1 | 3.5 | 2044 | 1 | -20 | -1 | 8 | 2
COc1cccc(CNC(=O)COC(=O)/C=C/c2ccc(SC)cc2)c1 | 6.9 | 5356 | 1 | -2 | 3 | 10 | /
Cc1ccc(S(=O)(=O)NCC2CCCO2)cc1[N+](=O)[O-] (stereo not drawn) | 6.7 | 1941 | 8 | -3 | 13 | 13 | -18
O=C(Nc1ccnn1C1CCN(Cc2ccc(CO)o2)CC1)c1ccccc1Cl | 1.8 | ? | 3 | 5 | 5 | 5 | -5
COc1ccc(CCN2C(=O)C(O)=C(C(=O)c3ccco3)C2c2cccs2)cc1OC (stereo not drawn) | -0.7 | 3411 | 6 | 5 | 12 | 8 | 2
Cc1cc(C)cc(N(C(C)C(=O)N2CCCC2)S(C)(=O)=O)c1 (stereo not drawn) | -2.4 | 3917 | 1 | -13 | -5 | 8 | -5
Cc1ccsc1C(=O)NNC(=O)c1ccc(NS(=O)(=O)c2cccs2)cc1 | / | 6296 | / | -6 | / | / | 9
Cc1cc(C(=O)OCC(=O)NCc2cccs2)c2ccccc2n1 | 7.3 | 3062 | 26 | -30 | 6 | -1 | 4
COc1ccc(OCC(=O)NNC(=O)c2nn(C)c(=O)c3ccccc23)cc1 | 6.5 | 10038 | -6 | -31 | 8 | 5 | 2
CCc1ccc(NC(=O)C2CCN(S(=O)(=O)c3cnc[nH]3)CC2)cc1 | 5.0 | 5858 | 17 | -18 | 8 | 5 | 17
CCCN(Cc1ccccc1)S(=O)(=O)c1ccc(N2C(=O)CCC2=O)cc1 | 4.0 | 2953 | -1 | -1 | 7 | 4 | -11
CCC(C)C(NC(=O)C(C)NC(=O)CNC(=O)CNC(=O)OCc1ccccc1)C(=O)OC (stereo not drawn) | -8.8 | 2925 | -7 | -16 | 4 | 5 | -6
CCOc1ccc(N2C(=O)CC(NCC3CCCO3)C2=O)cc1 (stereo not drawn) | 0.9 | 3048 | 9 | -19 | -6 | -15 | 5
CCOC(=O)C1CCN(C(=O)Cn2nc(C)n3c(cc4cc(C)ccc43)c2=O)CC1 | 1.7 | 4612 | 6 | 12 | 8 | -1 | -2
O=C(COc1ccc(-n2cnnn2)cc1)Nc1ccccc1Cl | -2.1 | 3467 | 1 | -21 | -2 | -3 | -5
OCCN(/C=N/c1nc(-c2ccc(Br)cc2)cs1)CCO | / | 11472 | / | -46 | / | / | -1
O=C1CC(SC(=Nc2ccccc2)Nc2ccccc2)C(=O)N1c1ccc(Cl)c(Cl)c1 (stereo not drawn) | / | 2562 | / | -8 | / | / | 4
O=C(c1cccc([N+](=O)[O-])c1)N1CCN(S(=O)(=O)/C=C/c2ccccc2)CC1 | 1.4 | 3636 | 1 | -33 | -1 | 1 | /
CC(=O)Nc1cc2c3ccccc3n(C)c2cc1[N+](=O)[O-] | 2.1 | 3803 | 0 | -8 | 0 | 2 | /
O=C(NCc1ccccn1)c1ccc(/C=N/O)nc1 | / | 4888 | / | -7 | / | / | 4
C=C1CCN(C(C(=O)Nc2ccc(OC)cc2)C(C)C)S(=O)(=O)c2ccccc21 (stereo not drawn) | 5.6 | / | -14 | / | 6 | 3 | /
CC(C)(C)c1csc(NN=Cc2cccnc2)n1 | -12 | / | -1 | / | 2 | 15 | /
Cc1ccc(NC(=S)NC(=O)C2CCCCC2)c(Br)c1 | -0.5 | 4074 | 87* | -62 | -3 | 24 | /
Cn1nnc(NC(=O)/C=C/c2ccco2)n1 | -4.3 | / | -3 | / | -3 | 11 | -4
COc1ccc(C(=O)N(C)Cc2ccc(C)o2)cc1OC1CCN(C(C)C)CC1 | -0.4 | 5984 | -2 | -15 | -10 | 4 | -4
Cc1ccc(C2CC(c3ccc(NS(C)(=O)=O)cc3)=NN2C(=O)c2ccco2)cc1 (stereo not drawn) | 42 | 2791 | -17 | -2 | -2 | 2 | 8
CCOc1ccccc1Oc1c(C)oc2c(CN3CCN(CCO)CC3)c(O)ccc2c1=O | 3.1 | 2386 | 4 | 7 | 11 | 6 | -3
Cc1ccccc1NC(=O)c1cccc(Cn2cc(Br)c([N+](=O)[O-])n2)c1 | 7.2 | 3746 | 8 | -1 | / | / | 4
CCSc1ccc(NC(=O)c2cccnc2)cc1 | 0.8 | 4117 | 0 | -29 | / | / | 4
COc1ccc(NC(=O)c2cncc(Br)c2)cc1S(N)(=O)=O | 1.7 | 3982 | 2 | -76 | -5 | 12 | 4
CC1Oc2ccccc2OC1(O)c1ccccn1 (stereo not drawn) | 5.7 | 9497 | 12 | -13 | 0 | 4 | 8
COc1cc(CNCc2ccc(Br)cc2)cc(OC)c1 | -1.0 | 3041 | 3 | -6 | 18 | 11 | 0
N#C/C(=C\c1ccccc1C(=O)O)c1nc2ccccc2[nH]1 | 3.9 | 3604 | 2 | -12 | 6 | 18 | -13
Cc1nn(C)c(C)c1CNC(=O)C=Cc1ccccc1F | -1.9 | / | -1 | / | 7 | 4 | /
Cc1cc(C)cc(NS(=O)(=O)c2ccc3[nH]c(=O)ccc3c2)c1 | 10 | 3848 | 3 | -27 | -8 | 5 | -12
CC(C)OC(=O)/C(C#N)=C\c1cccnc1 | 3.3 | 4281 | 6 | -10 | 3 | 0 | 7
O=C(Cn1nc(-c2cccc(Cl)c2)ccc1=O)Nc1ccc(C(=O)NC2CC2)cc1 | 7.5 | 3872 | 1 | -31 | -6 | -3 | -5
Cc1c(/C=N/NC(=O)c2ccc(O)cc2)c2ccccn2c1C(=O)c1ccc(F)cc1 | / | 2752 | / | -27 | / | / | -1
O=C(COC(=O)c1ccccc1Oc1ccccc1)NCc1ccco1 | 0.6 | 3540 | 7 | -2 | / | / | 10
COc1cccc(/C=C/C(=O)OCC(=O)Nc2ccc(Cl)c(S(=O)(=O)N(C)C)c2)c1 | 4.4 | 4043 | 4 | -15 | 11 | 11 | -2
O=C(O)CCC(=O)Nc1nc2ccccc2s1 | -0.5 | ? | 4 | -16 | -6 | -7 | 10
Cc1ccc(NC(=O)COC(=O)CSCC(=O)Nc2cc(C)on2)c(C)c1 | 3.2 | 5473 | 4 | -20 | 3 | 5 | -5
COCc1nc2ccccc2n1Cc1ccccc1 | 1.7 | 4091 | -11 | -14 | 7 | 8 | -4
Cc1cc(C)cc(NC(=O)Nc2ccc(NC(=O)c3ccccc3O)cc2)c1 | 2.1 | 3728 | 2 | -20 | -8 | -2 | 3
Cc1c(C(=O)Oc2ccc(F)cc2)sc2ncn(Cc3cccc(F)c3)c(=O)c12 | -0.8 | 2121 | 0 | -9 | 10 | 9 | -10
Cc1ccccc1C=Nc1ccccc1C(N)=O | 2.6 | 1923 | 1 | -19 | / | / | 3
NNc1nc(-c2ccccc2)c2ccccc2n1 | 13 | 4267 | 8 | 11 | 10 | 3 | 6
CCc1ccccc1NC(=O)CN(c1ccc(OC)cc1OC)S(=O)(=O)c1ccccc1 | 0.6 | 3824 | 7 | -22 | 11 | 10 | -15
CCOC(=O)CNC(=S)N(Cc1cccs1)C1CCCCC1 | 7.2 | 2634 | 3 | -2 | 2 | 1 | 9
COc1ccc(NC(=O)CN(C)C(=O)c2ccc3ccccc3c2)cc1 | -0.8 | 4354 | 6 | -31 | -10 | 3 | /
